Screening results: PubChem, several laboratories
Ecoli rRNA inh: inhibits bacterial ribosomal RNA function over humanized ribosomes; E. coli WT GFP vs humanized-ribosome RFP mutants, fluorescence, 24 h; stronger effect = lower value; DMSO median 0, no signal -100; GFP signal change (wild-type ribosome), % (concentration not given with the values); 350,000 tested, 1.6% active;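 active = significant combined selectivity score with lowered wild-type GFP, culture density cut under 30%, mutant RFP and density less affected; inactive = any of these conditions unmet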; also: one replicate is shown; some compounds called inactive have numbers as strong as hits
Beta cell apopt: beta cell apoptosis inhibition; INS-1E cytokine-induced death, ATP luminescence, 48 h; percent of positive-control rescue, neutral wells zero; protection from apoptosis, % (no concentration beside the values); 300,000 tested, 0.8% active; AID 435005;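 active = all replicates at 75% or more, or half of them and the mean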;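 also: 0% = cytokine-treated negative control wells and 100% = positive control rescue; higher means more ATP so stronger rescue from cytokine killing; wells of about 40 µL received 100 nL stock; the first replicate is given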
UCH37 inh: inhibitors of human deubiquitinating enzyme UCH37. 330,000 tested, 0.33% active. Q9Y5K5. inhibition, % (concentration not given with the values). purified proteasome/UCH37, Ub-AMC cleavage fluorescence. AID 588478;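 active = mean of two replicates above 20%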;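 also: 0% = compound-free wells with enzyme and 100% = wells lacking proteasome; stock transfer was 100 nL into about 20 µL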
Target sequence (Q9Y5K5 whole entry, looked up): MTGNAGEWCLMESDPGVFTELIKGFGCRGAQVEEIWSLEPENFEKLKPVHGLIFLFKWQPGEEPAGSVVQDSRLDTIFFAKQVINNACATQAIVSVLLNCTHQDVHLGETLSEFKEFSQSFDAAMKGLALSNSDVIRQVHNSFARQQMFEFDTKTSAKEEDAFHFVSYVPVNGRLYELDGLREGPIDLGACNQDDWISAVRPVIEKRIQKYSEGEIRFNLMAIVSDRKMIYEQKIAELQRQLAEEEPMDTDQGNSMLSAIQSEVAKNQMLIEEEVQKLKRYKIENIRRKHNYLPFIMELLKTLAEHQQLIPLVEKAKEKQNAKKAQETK
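Material: human UCH37 enzyme supplied as purified proteasome complex / Amount: 0.15 nM proteasome as dispensed / Buffer or medium: pH 7.4 Tris-HCl (50 mM) with ovalbumin, ATP-MgCl2, DTT / Times: preincubation 30 min, reaction 25 min, room temperature / Technique: AMC fluorescence from Ub-AMC cleavage, excitation 355 nm, emission 460 nm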
T cruzi repl: T. cruzi replication inhibition; inhibition, % (no concentration beside the values); T. cruzi beta-gal in NIH3T3, luminescence, 90 h; 300,000 tested, 1.4% active;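 active = mean inhibition across valid replicates above about 55%, limit read from the data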;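 also: signal also drops with host cell toxicity which is not excluded here; 0% = plate median of DMSO wells and 100% = zero luminescence signal; higher percent means less beta-gal luminescence so fewer parasites; stock transfer was 50 nL into about 50 µL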
Bfl-1 A1 inh: inhibitors of the anti-apoptotic protein A1, read as caspase activation | MEF A1-2A-BIM cells, Caspase-Glo 3/7 luminescence, 3 h; percent of clofoctol response, vehicle zero | caspase activation, % (test concentration not listed) | 330,000 tested, 0.066% active;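 active = over half of replicate activation scores above 10%, or exactly half above 10 with the replicate mean above 10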;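 also: wells of about 30 µL received 50 nL stock; many hits fall short of the cut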
E coli growth: blocks Escherichia coli growth. OD600, 23 h; stronger effect = lower value. OD600 absorbance (test concentration not listed). 330,000 tested, 0.21% active. AID 1053175;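 active = OD600 absorbance below the run mean of sample wells minus 3.6 SD, in any replicate, cut at about 0.56 in these data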;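 also: stock transfer was 300 nL into about 60 µL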
FGF22 binding: binders of recombinant human FGF22 by thermal shift; 340,000 tested, 1.5% active; SYPRO orange fluorescence; percent of sucrose octasulfate shift, DMSO zero; AID 651658; calls only at 9.99 µM;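 active = melting point raised past a set limit in the mean and every replicate; three in four hits are not shown here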
Target sequence (Q9HCT0 whole entry, looked up): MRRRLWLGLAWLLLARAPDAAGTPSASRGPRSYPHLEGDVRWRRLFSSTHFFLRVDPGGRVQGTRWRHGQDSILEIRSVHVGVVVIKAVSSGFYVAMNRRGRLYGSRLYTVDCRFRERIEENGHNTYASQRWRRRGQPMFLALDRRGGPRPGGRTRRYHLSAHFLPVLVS
AF4-AF9 inh: blocks AF4 peptide binding to human AF9; P42568; AlphaScreen, biotin-AF4 peptide binding to FLAG-AF9; inhibition, % at 10 µM; 350,000 tested, 0.47% active; AID 651704;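 active = every replicate reaching a set inhibition limit, whatever the replicate mean, cut at about 25% in these data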;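 also: 0% = plate neutral control median and 100% = total signal loss; the record names both 10 and 1 µM as test concentration; the first replicate is given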
Ecoli rRNA inh OD600: also measured in Ecoli rRNA inh; calls as there; OD600 change, %; measured here: OD600 growth;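 optical density of the mix in the first replicate; 0 = DMSO median and -100 = no signal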
Ecoli rRNA inh RFP: also measured in Ecoli rRNA inh; calls as there; RFP signal change, %; measured here: RFP humanized mutant strains;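 first replicate; 0 = DMSO median and -100 = no signal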
The depositor's hits bear a star; i = inactive; x = no result given. An excerpt, so the mix of outcomes need not match the whole.

SMILES	Ecoli rRNA inh	Ecoli rRNA inh OD600	Ecoli rRNA inh RFP	Beta cell apopt	UCH37 inh	T cruzi repl	Bfl-1 A1 inh	E coli growth	FGF22 binding	AF4-AF9 inh
O=C(C[C@H]1C/C=C/CC[C@H](Cc2ccc(F)cc2)C(=O)O[C@H](c2ccccc2)CNC1=O)NCCO	5	-2	1.1	0	-1.9	x	-0.6	0.68	i	-0.1
Cc1cn(CCC(=O)Nc2ccc(N3CCOCC3)cc2)c2ccccc12	x	x	x	11	3.2	x	-1.1	0.62	i	11
Cc1ccc(CNC(=O)CCCc2ccccc2)cc1	-2	2	-0.2	-4	-1.6	-7	-0.1	0.67	i	-20
CC(C)n1c(NCCO)nc2ccccc21	10	0	-4.3	-2	5.5	-13	-0.8	0.67	i	-15
CCC1(C)Cc2nc3[nH]c(=S)n(-c4ccc(C)cc4)c(=O)c3cc2CO1 (stereo not given)	x	x	x	-1	3.7	-1	0.5	0.67	i	2.2
O=C(NCc1ccccc1Cl)C1CCN(S(=O)(=O)c2ccc(F)cc2)CC1	-13	-12	-1.8	x	1.8	11	-1.0	0.67	i	0.2
C=CCN1C(=O)C(C)NC1=S (stereo not given)	20	7	-0.6	x	2.7	-13	x	0.7	i	x
Cc1c(NC(=O)C(C)OC(=O)c2sc3ccccc3c2Cl)c(=O)n(-c2ccccc2)n1C (stereo not given)	-3	-5	-3.0	x	4.0	-18	0.5	0.7	i	-24
COc1ccc(S(=O)(=O)N2CC3C4C=CC(C4)C3C2)cc1 (stereo not given)	x	x	x	-5	1.3	-2	-1.3	0.69	x	x
CCCOC(=O)c1ccc(OCC(O)CN2C(=O)NC(C)(C)C2=O)cc1 (stereo not given)	x	x	x	-6	0.1	-26	-0.2	0.66	x	x
COc1ccc(S(=O)(=O)N2CCCC(C(=O)NCCC3=CCCCC3)C2)cc1 (stereo not given)	x	x	x	-4	3.6	35	0.2	0.79	x	x
COc1ccc2[nH]cc(C(O)CN3CCN(c4ccccc4F)CC3)c2c1 (stereo not given)	-8	-14	5.1	-1	1.4	15	-1.6	0.61	i	9.6
Cc1ccccc1-n1c(SCC(=O)c2c(N)n(C3CC3)c(=O)[nH]c2=O)nnc1N1CCOCC1	16	7	1.2	-15	x	x	-0.2	x	i	0.2
Cc1ccc(S(=O)(=O)N2CCN(C(=S)NCC3CCCO3)CC2)cc1 (stereo not given)	1	3	0.9	0	-0.6	7	0.5	0.62	i	16
O=C(OCC1CCC=CO1)C1CCC=CO1 (stereo not given)	5	8	-2.7	x	1.8	x	x	0.65	i	-2.3
O=C(NCC1CCCO1)C(C(=O)c1ccc(F)cc1)n1ccccc1=O (stereo not given)	x	x	x	2	2.8	-10	1.0	0.64	x	x
Cc1cccc(S(=O)(=O)Nc2ccc(C)c3c2OC(C)(C)C3)c1	x	x	x	-14	2.5	1	2.7	0.72	x	x
NC(=O)c1ccc(Nc2ccc([N+](=O)[O-])cc2[N+](=O)[O-])cc1	-10	-11	-5.7	2	17	43	0.3	0.69	i	1.1
O=C(C1CCCCN1S(=O)(=O)c1ccccc1[N+](=O)[O-])N1CCCCC1 (stereo not given)	1	0	4.4	0	-0.5	-19	0.1	0.6	i	-0.1
COc1cccc(C(=O)N2CCN(C(=O)C3CCCO3)CC2)c1 (stereo not given)	10	15	0.7	x	4.6	x	x	0.69	i	1.1
CCOc1ccc(S(=O)(=O)NCCC(=O)NC(C)CCc2ccccc2)cc1 (stereo not given)	-1	-5	1.0	-2	3.0	0	-0.9	0.7	i	-1.6
Cc1cccc(CSC(=N)N)c1	x	x	x	-8	3.9	-25	0.6	0.66	i	1.0
Cc1ccc(C(=O)c2ccc([N+](=O)[O-])cc2)cc1C	0	-2	-4.6	4	2.6	12	0.5	0.68	i	-7.7
CCOc1ccc(NC(=O)CSc2ncn[nH]2)c([N+](=O)[O-])c1	x	x	x	-11	0.6	-9	-0.8	0.65	x	x

Given with each value named: part of the list above
> Cc1ccccc1-n1c(SCC(=O)c2c(N)n(C3CC3)c(=O)[nH]c2=O)nnc1N1CCOCC1
- Ecoli rRNA inh: 16
- Ecoli rRNA inh OD600: 7
- Ecoli rRNA inh RFP: 1.2
- Beta cell apopt: -15
- UCH37 inh: x
- T cruzi repl: x
- Bfl-1 A1 inh: -0.2
- E coli growth: x
- FGF22 binding: i
- AF4-AF9 inh: 0.2

> O=C(OCC1CCC=CO1)C1CCC=CO1 (stereo not given)
- Ecoli rRNA inh: 5
- Ecoli rRNA inh OD600: 8
- Ecoli rRNA inh RFP: -2.7
- Beta cell apopt: x
- UCH37 inh: 1.8
- T cruzi repl: x
- Bfl-1 A1 inh: x
- E coli growth: 0.65
- FGF22 binding: i
- AF4-AF9 inh: -2.3

> NC(=O)c1ccc(Nc2ccc([N+](=O)[O-])cc2[N+](=O)[O-])cc1
- Ecoli rRNA inh: -10
- Ecoli rRNA inh OD600: -11
- Ecoli rRNA inh RFP: -5.7
- Beta cell apopt: 2
- UCH37 inh: 17
- T cruzi repl: 43
- Bfl-1 A1 inh: 0.3
- E coli growth: 0.69
- FGF22 binding: i
- AF4-AF9 inh: 1.1

> CCOc1ccc(NC(=O)CSc2ncn[nH]2)c([N+](=O)[O-])c1
- Ecoli rRNA inh: x
- Ecoli rRNA inh OD600: x
- Ecoli rRNA inh RFP: x
- Beta cell apopt: -11
- UCH37 inh: 0.6
- T cruzi repl: -9
- Bfl-1 A1 inh: -0.8
- E coli growth: 0.65
- FGF22 binding: x
- AF4-AF9 inh: x

Next part.
SMILES	Ecoli rRNA inh	Ecoli rRNA inh OD600	Ecoli rRNA inh RFP	Beta cell apopt	UCH37 inh	T cruzi repl	Bfl-1 A1 inh	E coli growth	FGF22 binding	AF4-AF9 inh
COC(=O)CNC(=O)CSc1ccccn1	x	x	x	-9	3.0	-25	2.0	0.67	i	0.0
CCOc1ccc2c(c1)OC(c1ccc(OC)cc1)(C(F)(F)F)NC2=O (stereo not given)	3	11	0.7	5	3.4	35	1.7	0.68	i	8.7
O=C(CN1C2CCCC1CC(NC(=O)c1ccccc1)C2)NC1CC1 (stereo not given)	8	5	-0.4	-1	4.1	5	0.6	0.68	i	-1.4
Cc1noc(C)c1COc1cccc(C(=O)OCC(=O)N2CC(=O)Nc3ccccc32)c1	x	x	x	16	4.5	15	1.2	0.71	x	x
C[C@H](NC(=O)[C@H](Cc1ccccc1)NC(=O)c1cc2cc(Cl)ccc2n1C)C(=O)O	7	-3	3.1	-5	0.3	-54	1.7	0.69	i	-4.0
CSCCC(NC(=O)c1ccccc1Br)C(=O)NCc1ccc(F)cc1 (stereo not given)	1	9	-4.6	x	1.6	-5	-0.5	0.68	i	0.3
CC1CC(C)CN(CCCNC(=O)CCNC(=O)Cn2ccc3ccccc3c2=O)C1 (stereo not given)	x	x	x	-5	1.8	-19	0.7	0.7	x	x
COCCCNC(=O)c1ccc2c(=O)n(C3CCCC3)c(=S)[nH]c2c1	x	x	x	-6	2.7	11	0.1	0.67	x	x
O=C(CCn1nnc2ccccc21)Nc1nnc(Cc2ccc(F)cc2)s1	x	x	x	-13	-0.1	4	0.1	0.66	x	x
CC1=CCC(C(=O)O)(C(=O)N/N=C/c2cccs2)C(c2ccc(Cl)cc2)C1 (stereo not given)	-20	-24	19	5	x	5	0.6	x	i	7.3
CCOC(=O)CN1C(=O)N[C@@H](c2cccc(C(F)(F)F)c2)C(C(C)=O)=C1C	x	x	x	4	3.6	2	1.8	x	x	x
COc1cc(=O)[nH]c(SC(C)C(=O)Nc2cccc3ccccc23)n1 (stereo not given)	-2	0	-2.9	-8	0.7	-15	-0.2	0.68	i	-0.5
O=C(NCCc1ccccc1)c1cc2sccc2n1Cc1ccccc1	x	x	x	-3	5.3	36	3.0	0.75	x	x
O=S(=O)(Nc1ccccc1)c1ccc(-c2cnc(C3CC3)o2)cc1	-44	-62	3.3	3	3.9	-21	1.6	0.69	i	-0.8
CC1(C)Cc2c(C#N)c(N3CCN(C(=O)c4ccccc4)CC3)nc(-c3ccco3)c2CS1	x	x	x	-6	-116	x	0.4	0.76	x	x
O=C(O)c1ccc(NC2(C(=O)O)CCCC2)cc1	7	16	-2.2	x	2.1	x	x	0.69	i	-1.7
O=C(CNC(=O)c1ccccc1)N/N=C/c1ccccc1Cl	16	8	3.4	3	x	-12	1.8	x	i	-1.9
O=C(O)CSc1cccc2cccc(C(=O)O)c12	9	7	-1.2	-1	4.3	-11	0.4	0.68	i	-1.2
CC1CCCC(NC(=O)c2nn(C)c3c2CS(=O)(=O)c2ccccc2-3)C1C (stereo not given)	3	8	-2.0	-2	1.9	0	-2.3	0.75	i	-2.8
COc1ccc(Cl)cc1S(=O)(=O)n1c([N+](=O)[O-])cnc1C	-5	-8	-3.6	-5	2.4	-12	0.2	0.69	i	-2.9
O=C(Nc1ccc(S(=O)(=O)NC2=NCCCCC2)cc1)c1ccc(=O)[nH]c1	3	2	-0.9	-1	3.1	-2	-0.6	0.66	i	-1.9
COc1cc2c(cc1OC)CN(CCOc1ccc(Br)cc1)CC2	-19	-10	8.6	-6	3.3	15	0.0	0.63	i	4.4
FC(F)(F)c1cccc(NC(=S)Nc2cccc(Cl)c2)c1	x	x	x	10	3.5	20	-0.2	0.5*	x	x
Cc1ccccc1OCC(=O)NCC(c1ccco1)N1CCCCC1 (stereo not given)	-3	-5	5.2	-2	2.3	9	0.6	0.69	i	2.8
